KCNH2 3.1 inh – blocks the human KCNH2 3.1 channel isoform; U2OS KCNH2 3.1, thallium flux FluxOr; stronger effect = lower value; activity change, % (tested at about 1.8 µM); 340,000 compounds, 0.95% hits;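 active = maximum activity change below -70%; inconclusive = maximum activity change from -70% to -50%; inactive = maximum activity change above -50%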;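 note: thallium influx rate constant from kinetic fluorescence after stimulation buffer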
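Measured as rate of thallium-driven FluxOr signal in transduced U2OS cells carrying the 3.1 channel, read kinetically for 2 min upon stimulation; values are rate constants scaled to DMSO control wells.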
B2AR arrestin – recruits beta-arrestin to the human beta2-adrenergic receptor | Potency, µM (doses to about 46.1 µM), inactives show top-dose activation, usual class: activators | AID 492947 | beta-arrestin recruitment to beta2AR, cell-based reporter | P07550 | 330,000 compounds, 0.02% hits;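 note: potency is the fitted concentration of half-maximal effect; 0% = DMSO controls and full agonism = EC100 isoproterenol or metaproterenol; nearly all actives have a fitted effect of over 65% in size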
Target sequence (P07550 whole entry, looked up): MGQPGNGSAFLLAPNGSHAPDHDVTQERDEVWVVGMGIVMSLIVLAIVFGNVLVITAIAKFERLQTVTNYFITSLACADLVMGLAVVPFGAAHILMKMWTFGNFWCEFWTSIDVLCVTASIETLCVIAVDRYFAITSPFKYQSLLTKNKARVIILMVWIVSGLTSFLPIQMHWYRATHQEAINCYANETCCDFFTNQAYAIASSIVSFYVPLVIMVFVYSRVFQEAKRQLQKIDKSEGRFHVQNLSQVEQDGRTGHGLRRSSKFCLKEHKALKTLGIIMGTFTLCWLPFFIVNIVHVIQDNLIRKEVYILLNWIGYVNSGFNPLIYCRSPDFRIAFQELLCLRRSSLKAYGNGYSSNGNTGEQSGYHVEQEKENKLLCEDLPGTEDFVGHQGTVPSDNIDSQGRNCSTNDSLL
Chronic BCR inh – blocks chronic active B-cell receptor signaling; ABC-DLBCL IkBa-CBG/CBR reporter, luminescence ratio, 4 h; Potency, µM (doses to about 46.1 µM), without a hit: top-dose ratio change, negative = lower green/red ratio, most hits filed as inhibitors; 340,000 compounds, 0.05% hits; active = well fitted inhibition curve with a large enough effect in the signal ratio, with a control signal flat, not every such curve was filed as active; inconclusive = small, poorly fitted or top-dose-only effect, or effect the other way, or a change in a side signal; the % refers to the signal ratio;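 note: potency is the fitted concentration of half-maximal effect; plate controls were basal doxycycline-induced cells for no effect and cells given 10 µM MG132 for full effect; MG132 reads +100%, hits lower the ratio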
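Concentration-response series (up to 46 uM) were applied to TMD8 dual-reporter cells for 4 h at 37C with doxycycline. Green/red ratio, after filter-overlap correction, defined %Activity; red signal alone was normalised to basal cells and zero luminescence.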
Coupling enz – inhibits coupling enzyme system, counter-screen for aldolase hits | coupling enzyme system counterscreen, AmpLite Red fluorescence | activity change, negative = inhibition, % at 58.2 µM, hits read low | 290,000 compounds, 0.67% hits | AID 2472; in the data active = activity change below about -30%
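Counterscreen of the coupled detection system alone, without aldolase: glyceraldehyde-3-phosphate coupling enzymes plus AmpLite Red readout. Compounds at 57.5 uM final, 10 min RT preincubation, 20 min RT reaction, fluorescence 525/598 nm.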
Eya2 phos inh – blocks the phosphatase activity of human Eya2. recombinant Eya2, OMFP fluorescence dephosphorylation (OMFP is methylfluorescein phosphate). Potency, µM (series often up to 76.9 µM), without a hit: at the top dose activity, negative = inhibition, actives largely listed as inhibitors. 330,000 compounds, 0.006% hits. AID 488837; note: potency is the fitted concentration of half-maximal effect
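Eya2 protein (added as 0.2 uM solution) was preincubated with compound for 10 min at ambient temperature in 50 mM HEPES pH 7.5, 50 mM NaCl, 5 uM MgCl2, 0.05% BSA, 1 mM DTT. OMFP (added at 50 uM) then reacted 10 min; fluorescence read at 485/525 nm.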
uPA surface inh – cell surface uPA generation inhibition; Potency, µM (titrated, usually from 38.3 µM), for inactives: top-dose activity change, negative = inhibition, most hits filed as inhibitors; 330,000 compounds, 0.31% hits; cell surface uPA generation assay, qHTS; active = well fitted inhibition curve with a large enough effect; inconclusive = small, poorly fitted or top-dose-only effect; inactive = no such curve, though single readings can be large or run the other way; tested in mouse RAW 264.7 cells; note: potency is the fitted concentration of half-maximal effect; nearly all actives have a fitted effect of over 55% in size
USP2a inh – blocks human ubiquitin-specific protease USP2a. O75604. USP2 core, Ub-CHOP2 coupled fluorogenic reporter, 485/531. Potency, µM (top dose mostly 38.3 µM), for inactives: at the highest dose activity change, negative = inhibition, usual class: inhibitors. 330,000 compounds, 0.01% hits;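 note: potency is the fitted concentration of half-maximal effect; plate controls were DMSO wells for no effect and full inhibition by NEM control for full effect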
Target sequence (O75604 whole entry, looked up): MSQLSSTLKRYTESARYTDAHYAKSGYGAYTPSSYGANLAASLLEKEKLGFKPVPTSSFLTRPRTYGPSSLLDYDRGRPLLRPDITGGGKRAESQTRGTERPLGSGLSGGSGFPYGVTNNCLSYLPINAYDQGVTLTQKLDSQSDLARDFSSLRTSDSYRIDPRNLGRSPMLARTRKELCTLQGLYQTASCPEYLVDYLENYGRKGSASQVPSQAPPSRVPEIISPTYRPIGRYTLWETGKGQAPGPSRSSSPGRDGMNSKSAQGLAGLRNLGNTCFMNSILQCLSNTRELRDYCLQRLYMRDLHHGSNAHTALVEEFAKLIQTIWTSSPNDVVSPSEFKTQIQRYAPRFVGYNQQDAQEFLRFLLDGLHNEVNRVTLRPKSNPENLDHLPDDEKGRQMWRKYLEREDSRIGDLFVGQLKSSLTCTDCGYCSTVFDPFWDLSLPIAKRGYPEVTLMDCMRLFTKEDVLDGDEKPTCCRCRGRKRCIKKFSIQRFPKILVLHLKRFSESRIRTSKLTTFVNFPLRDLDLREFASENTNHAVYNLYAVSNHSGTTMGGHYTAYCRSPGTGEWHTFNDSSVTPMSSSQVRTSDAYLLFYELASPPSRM
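Deubiquitinase activity read as fluorescence (485/531 nm) after Ub-CHOP2 cleavage activates the enterokinase reporter on its substrate; USP2 core 10nM, Ub-CHOP2 and substrate 25nM each, 30min compound preincubation then 60min RT; data normalized to NEM, curves fitted.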
Giardia killer – Giardia lamblia killing. activity change, % at 7.66 µM, hits read low. 340,000 compounds, 0.15% hits. Giardia lamblia trophozoite viability. AID 540267; in the data active = activity change below about -80%; inconclusive = between about -30% and that limit;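 note: parasites exposed to compound for two days anaerobically before the ATP read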
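Anaerobic 48 hrs incubation at 37 deg C of 100 trophozoites/well with test compounds; ATPLite 1-Step luminescence, 15-30 min RT, reports cellular ATP as viability.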
GALK inh – inhibitors of human galactokinase; AID 1868; Purified GALK, Kinase-Glo residual ATP luminescence; Potency, µM (series often up to 57.5 µM), without a hit: at the highest dose activity change, negative = inhibition, hits mostly inhibitors; P51570; 270,000 compounds, 0.007% hits; note: potency is the fitted concentration of half-maximal effect
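ATP-depletion format; final 35 uM ATP, 100 uM D-galactose, 5 nM enzyme; pH 8.0 HEPES/Mg2+ buffer; 60 min RT; luminescence read 10 min after detection reagent.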
KCNH2 WT inh – blocks the wildtype human KCNH2 potassium channel; 340,000 compounds, 0.37% hits; Q12809; U2OS, BacMam KCNH2, thallium flux FluxOr; stronger effect = lower value; activity change, % at 1.84 µM; AID 720551;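 active = maximum activity change below -70%; inconclusive = maximum activity change between -70% and -50%; inactive = maximum activity change above -50%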
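U2OS cells transduced with wild-type KCNH2 virus are loaded with FluxOr dye for 45 min, and thallium flux is measured in kinetic reads before and after stimulation buffer. Rate constants are normalized to DMSO controls.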
An asterisk follows results filed as active; ? = inconclusive; / = no result given. Unless noted, calls come from the whole dose curve; as a rule, active = well fitted curve in the direction sought with a large enough effect; inconclusive = small, poorly fitted or top-dose-only effect, or another doubt; inactive = no such curve, though single readings can be large; an effect the other way counts as inactive or inconclusive. Unless noted, % is set by controls: 0 for no effect and ±100 for the full control effect. Only part of the results is shown. The share of hits here may be higher or lower than overall.

SMILES	KCNH2 3.1 inh	B2AR arrestin	Chronic BCR inh	Coupling enz	Eya2 phos inh	uPA surface inh	USP2a inh	Giardia killer	GALK inh	KCNH2 WT inh
CCC(=O)Nc1ccc(Cl)c(NC(=O)c2cccnc2)c1	-5	-0.1%	?	-3	0%	7%	1%	-1	-1%	-12
COc1cc(NC(=O)[C@@H](NC(=O)N2CCn3c2nc2ccccc23)C(C)C)cc(OC)c1	-3	0.4%	?	0	-3%	5%	-4%	3	4%	-10
CCN(CC)C(=O)c1[nH]cnc1C(=O)NCC(=O)OC(C)(C)C	8	0.0%	1%	-7	-4%	-3%	-3%	-6	/	22
C[C@H]1CCC(=O)N([C@H](CN=[N+]=[N-])Cc2ccccc2)CC1	/	-0.9%	11%	-2	-2%	-11%	0%	3	/	/
CN1CCc2nc3ccccc3c(C(=O)OCC(=O)N(CCC#N)c3ccccc3)c2C1	23	-0.2%	6%	-2	0%	-6%	3%	-10	9%	4
CN=C(Nc1ccc(Cl)cc1)c1ccc(C(F)(F)F)cc1	-4	-0.2%	5%	2	3%	2%	-1%	6	-5%	-2
O=C(COc1nc2ccccc2nc1N1CCOCC1)N1CCc2ccccc21	11	0.8%	5%	0	22%	2%	0%	1	6%	-8
C=CCOC(=O)c1sc(NC(=O)c2ccco2)nc1C	-8	-0.5%	?	6	-5%	-9%	3%	?	7%	-6
O=C(Cc1ccccc1[N+](=O)[O-])NC1CCN(Cc2ccccc2)CC1	-2	-1.1%	-2%	-1	-8%	5%	0%	1	4%	4
CCOC(=O)c1c(-c2ccccc2)csc1NC(=O)c1cc(S(=O)(=O)N2CCOCC2)ccc1C	0	-0.2%	?	0	-3%	-5%	-3%	-2	1%	18
CCc1nc2ccc(C(=O)Nc3ccc4c(c3)OCO4)cc2nc1CC	-18	0.1%	?	-2	0%	-4%	2%	5	-1%	-1
NC(=O)CC(NC(=O)Cc1cccc2ccccc12)c1ccc(NCc2cc(F)ccc2F)c([N+](=O)[O-])c1 (stereo not given)	-20	-0.3%	?	-3	-2%	8%	-2%	-23	1%	21
CC(=O)Nc1ccc(S(=O)(=O)NCCC(=O)Nc2ccc(C)cn2)cc1	-1	-0.2%	2%	/	-3%	1%	-4%	-12	3%	3
Cc1nc(C)c(C(=O)Nc2ccc(Oc3ccccc3)cc2)o1	1	0.0%	-1%	0	-13%	-7%	2%	-4	1%	-12
CCc1cccc(CC)c1NC(=O)CN1CCN(S(=O)(=O)c2ccccc2)CC1	20	0.5%	?	1	6%	-8%	0%	-8	1%	3
CCCN(CC1CC1)C(=O)CCc1nnc(C(OC)c2ccccc2)o1 (stereo not given)	-2	-0.4%	9%	0	1%	19%	-2%	-24	3%	-10
CC(C)=C1C2CCC1C1C(=O)N(c3nc(-c4ccc(F)cc4)c(C)s3)C(=O)C21 (stereo not given)	-13	0.1%	-6%	-5	14%	3%	-6%	21	-1%	7
CC(C)CCN1C(=O)c2ccc(C(=O)Nc3c[nH]c(=O)[nH]c3=O)cc2C1=O	1	0.4%	20%	0	4%	5%	0%	11	-1%	-7
O=C(CNC(=O)c1ccccc1)NCC(=O)OCc1ccccc1Cl	15	8.0%	?	3	2%	1%	2%	5	0%	0
CC(=O)Nc1ccc(NC(=O)CSc2nc(N)c(NC(=O)c3ccco3)c(=O)[nH]2)cc1	/	0.2%	-1%	/	11%	-3%	1%	-27	4%	-19
CC(C)NC(=O)C1CCN(C2CCN(C(=O)c3scc4c3CCCC4)CC2)CC1	-8	-0.6%	5%	0	-8%	-1%	-2%	28	0%	22
COc1ccccc1CNC(=O)C1CCCN(S(=O)(=O)c2cccc3nsnc23)C1 (stereo not given)	-10	0.1%	13%	1	-17%	0%	1%	29	13%	-11
Nc1ccc2c(c1)sc1ccccc12	27	0.2%	?	1	4%	-4%	0%	-10	/	-6
Nc1ccc(C(=O)N/N=C\c2cc(N=Nc3cccc4ccccc34)ccc2O)cc1	-10	-1.6%	?	1	-14%	-13%	2%	7	4%	-2
O=C(Cc1cccs1)NCc1ccc(Cl)cc1Cl	2	-0.4%	0%	4	9%	-2%	2%	-8	-5%	-9
CCCCNC(=O)Nc1c(C(=O)OC)[nH]c2ccc(C)cc12	6	0.2%	1%	5	7%	-2%	1%	-12	-3%	-8
Cn1c(CNC(=O)C2CCCCC2)cc2ccccc21	-9	-0.6%	2%	0	4%	-24%	-1%	-2	4%	-2
CCNC(=O)O/N=C(\C)c1sc(-c2ccc(Cl)cc2)nc1C	3	0.1%	7%	0	-10%	-2%	-1%	21	-2%	-2
CCN(CCCNC(=O)c1[nH]c(C)c(C(C)=O)c1C)c1ccccc1	-13	0.4%	?	0	-11%	-2%	1%	6	0%	0
Cn1nc(C(=O)Nc2ccc(S(=O)(=O)NCc3ccco3)cc2)c2ccccc2c1=O	9	0.1%	-14%	1	-6%	8%	4%	-10	0%	0
COc1ccc(OC)c(NC(=O)CCN2C(=O)c3cccc([N+](=O)[O-])c3C2=O)c1	-1	-0.5%	2%	-5	3%	-4%	-3%	-8	6%	-7
CCn1c(COc2ccc(=O)n(-c3ccccc3)n2)nnc1SCC(=O)OC	-11	0.0%	7%	3	20%	2%	12%	-16	-3%	-25
O=C1CC(C(=O)Nc2ncccn2)C(c2ccccc2)O1 (stereo not given)	-7	0.1%	-1%	8	-22%	1%	2%	-6	1%	5
Cc1ccc(CN2CC(C(=O)Nc3ccc(F)c([N+](=O)[O-])c3)CC2=O)cc1 (stereo not given)	-13	0.0%	6%	0	13%	-3%	0%	-26	-1%	/
Cc1cccc(C(=O)N2CCCC(Nc3ccc(C)c(C)c3)C2)n1 (stereo not given)	22	0.3%	?	/	-5%	9%	0%	-8	1%	-2
COc1cc(C)nc(Oc2ccc(OCCOc3ccc(C)cc3)nn2)n1	2	0.0%	-2%	-6	-9%	4%	3%	-7	5%	1
Cc1ccc(C2=NNC(=O)C(c3ccc(Cl)cc3)C2)cc1 (stereo not given)	-17	-0.4%	25%	1	7%	1%	1%	8	0%	6
Cc1nc2nc(-c3cccnc3)[nH]n2c(=O)c1C	0	0.0%	-13%	-4	25%	5%	-2%	-16	-1%	6
COC(=O)c1ccc(NC(=O)CSc2ccccc2)cc1	4	-0.4%	6%	1	7%	0%	2%	0	0%	1
O=C(Cc1ccccc1)Nc1nc(=O)c2ccccc2s1	-12	-0.3%	-21%	/	12%	-12%	3%	15	-1%	-9

Given with two lines to a compound: entries from further up.
Every second line gives: KCNH2 3.1 inh | B2AR arrestin | Chronic BCR inh | Coupling enz | Eya2 phos inh | uPA surface inh | USP2a inh | Giardia killer | GALK inh | KCNH2 WT inh
- CCN(CCCNC(=O)c1[nH]c(C)c(C(C)=O)c1C)c1ccccc1
 : -13 | 0.4% | ? | 0 | -11% | -2% | 1% | 6 | 0% | 0
- Cn1nc(C(=O)Nc2ccc(S(=O)(=O)NCc3ccco3)cc2)c2ccccc2c1=O
 : 9 | 0.1% | -14% | 1 | -6% | 8% | 4% | -10 | 0% | 0
- COc1ccc(OC)c(NC(=O)CCN2C(=O)c3cccc([N+](=O)[O-])c3C2=O)c1
 : -1 | -0.5% | 2% | -5 | 3% | -4% | -3% | -8 | 6% | -7
- CCn1c(COc2ccc(=O)n(-c3ccccc3)n2)nnc1SCC(=O)OC
 : -11 | 0.0% | 7% | 3 | 20% | 2% | 12% | -16 | -3% | -25
- O=C1CC(C(=O)Nc2ncccn2)C(c2ccccc2)O1 (stereo not given)
 : -7 | 0.1% | -1% | 8 | -22% | 1% | 2% | -6 | 1% | 5
- Cc1ccc(CN2CC(C(=O)Nc3ccc(F)c([N+](=O)[O-])c3)CC2=O)cc1 (stereo not given)
 : -13 | 0.0% | 6% | 0 | 13% | -3% | 0% | -26 | -1% | /
- Cc1cccc(C(=O)N2CCCC(Nc3ccc(C)c(C)c3)C2)n1 (stereo not given)
 : 22 | 0.3% | ? | / | -5% | 9% | 0% | -8 | 1% | -2
- COc1cc(C)nc(Oc2ccc(OCCOc3ccc(C)cc3)nn2)n1
 : 2 | 0.0% | -2% | -6 | -9% | 4% | 3% | -7 | 5% | 1
- Cc1ccc(C2=NNC(=O)C(c3ccc(Cl)cc3)C2)cc1 (stereo not given)
 : -17 | -0.4% | 25% | 1 | 7% | 1% | 1% | 8 | 0% | 6

The list goes on.
SMILES	KCNH2 3.1 inh	B2AR arrestin	Chronic BCR inh	Coupling enz	Eya2 phos inh	uPA surface inh	USP2a inh	Giardia killer	GALK inh	KCNH2 WT inh
O=C(CSc1ccc([N+](=O)[O-])cn1)Nc1ccc(N2CCOCC2)c(Cl)c1	12	-1.5%	-22%	-5	-16%	-4%	2%	13	4%	-18
CCOC(=O)c1cnn(-c2nc(-c3ccccc3)nc3c2COC(C)(C)C3)c1N	3	0.0%	4%	3	8%	-10%	-2%	7	3%	0
CCCCn1nnnc1NCc1ccc(OC)c(OC)c1	4	-0.5%	-1%	5	-14%	7%	0%	2	2%	-1
O=C(O)COc1ccccc1/C=N/NC(=O)CSc1nc2ccccc2c(=O)n1-c1ccc(Cl)cc1	-19	0.3%	-6%	13	5%	2%	-1%	-20	/	4
CCOC(=O)C1=C(COC(=O)Cc2ccc(Br)cc2)NC(=O)NC1C (stereo not given)	-2	0.0%	4%	/	10%	0%	0%	12	-1%	-5
O=C(c1ccccc1)N1CCN(c2ccc([N+](=O)[O-])c(N3CCOCC3)c2)CC1	/	-0.5%	-4%	1	-11%	-1%	0%	-5	-2%	-16
